# Screens as filed in PubChem.
# gsp ag: gsp mutant agonism. gsp mutant cells, cAMP HTRF, 30 min; control for the full effect not named in the record. Potency, µM (doses to about 76.9 µM), inactives show top-dose activation (cAMP increase), actives largely listed as activators. 340,000 tested, 0.13% active; active = well fitted activation curve with a large enough effect; inconclusive = small, poorly fitted or top-dose-only effect, or another doubt; inactive = no such curve, though single readings can be large or run the other way; cell line not stated here;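 further: phosphodiesterase inhibitor Ro 20-1724 added with compounds to block cAMP breakdown; potency means the concentration at half of the fitted maximal effect; nearly all actives have a fitted effect of over 60% in size; about a fifth of the inactives were tested at one dose only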
#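 Cells in DMEM/10% FBS with G418 were pretreated with compounds in DMSO plus […] (300 uM stock) for 30 min at 37C. cAMP was measured by HTRF (cAMP-d2 plus anti-cAMP antibody-K) after 30 min at room temperature.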
# Menin MLL FP FL: menin-MLL binding inhibition, fluorescein peptide; Fluorescence polarization, fluorescein-MLL peptide displacement from menin; FP activity change, % at 61.4 µM; 290,000 tested, under 10 active; inconclusive = falling polarisation curve, or a change in total fluorescence; inactive = total fluorescence flat and polarisation flat or rising; no compound was filed as active; the % refers to the polarisation; negative = inhibition;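 further: % of control where 0% means no effect; inhibitors lower the polarisation; unlabelled MLL peptide was the positive control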
# CtBP-E1A blk: CtBP/E1A binding inhibition. AlphaScreen GST-E1A/His-CtBP binding, 1536-well; hits give low values; control for the full effect not named in the record. activity change, % (concentration not given with the values). 340,000 tested, 0.49% active; in the data active means activity change below about -65%; inconclusive means about -30% to -65%; inactive means above about -30%; further: on the % scale 0 is the no-effect control and ±100 the full control effect
#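 Steps: dispense buffer (Tris pH 8.0, NaCl 300 mM, TCEP 1 mM, BSA, Tween 20); add 5X protein mix (GST-E1A, His-CtBP, 125 nM each); pin 23 nL compound; 2 h at 37 °C, dark; add 5X beads (50 ug/mL); 1 h; read.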
# TRPV1 potentiator: human TRPV1 potentiation; potentiation, % at 8.33 µM; TRPV1-expressing cells, Fluo-8 calcium influx, capsaicin EC20 potentiation; host cell line not named in the record; control for the full effect not named in the record; 320,000 tested, 0.02% active; Q8NER1; active means potentiation above 80%; inconclusive means 30% to 80%; inactive means below 30%; further: 0% is about no effect
# Target sequence (Q8NER1 whole entry, looked up): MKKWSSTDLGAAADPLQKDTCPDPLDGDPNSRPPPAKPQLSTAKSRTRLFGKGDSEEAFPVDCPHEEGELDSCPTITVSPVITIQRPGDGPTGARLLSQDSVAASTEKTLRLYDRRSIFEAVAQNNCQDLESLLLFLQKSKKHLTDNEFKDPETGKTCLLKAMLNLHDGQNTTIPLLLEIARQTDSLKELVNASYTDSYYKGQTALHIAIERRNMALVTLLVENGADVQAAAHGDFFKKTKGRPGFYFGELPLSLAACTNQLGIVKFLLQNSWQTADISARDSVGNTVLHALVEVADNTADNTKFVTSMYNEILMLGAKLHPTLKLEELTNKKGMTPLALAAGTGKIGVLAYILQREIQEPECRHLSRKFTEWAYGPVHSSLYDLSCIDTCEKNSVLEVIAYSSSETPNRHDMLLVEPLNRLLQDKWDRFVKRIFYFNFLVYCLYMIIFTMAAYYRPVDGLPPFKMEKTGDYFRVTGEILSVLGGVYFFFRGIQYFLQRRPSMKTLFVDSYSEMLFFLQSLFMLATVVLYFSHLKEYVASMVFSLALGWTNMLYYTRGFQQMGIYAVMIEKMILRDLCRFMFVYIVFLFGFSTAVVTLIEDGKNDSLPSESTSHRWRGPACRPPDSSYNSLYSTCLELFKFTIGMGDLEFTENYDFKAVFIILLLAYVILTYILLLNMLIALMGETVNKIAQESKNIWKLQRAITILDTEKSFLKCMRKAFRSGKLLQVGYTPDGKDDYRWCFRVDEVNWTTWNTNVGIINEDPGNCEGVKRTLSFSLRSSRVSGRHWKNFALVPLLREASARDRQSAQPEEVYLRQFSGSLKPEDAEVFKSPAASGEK
#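 Cells expressing TRPV1 were dye-loaded with Fluo-8 and read kinetically: 10 s baseline, 3 min after compound (agonist portion), then 2 min after EC20 capsaicin (allosteric enhancer portion). Calcium-bound dye fluorescence at 480/520 nm.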
# gsp antagonist: antagonists of gsp mutant (McCune-Albright syndrome); gsp-mutant cells, cAMP HTRF, 30 min; control for the full effect not named in the record; Potency, µM (titrated, usually from 76.9 µM), inactives show at the top dose activity change, negative = inhibition, actives largely listed as inhibitors; 340,000 tested, 0.4% active; AID 624288; active = falling curve of any shape with a large fitted effect; inconclusive = falling curve, mostly with a smaller effect; inactive = flat or rising curve; cell line not stated here;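 further: intracellular cAMP measured with PDE inhibitor Ro 20-1724 present during compound exposure; potency means the concentration at half of the fitted maximal effect; on the % scale 0 is the no-effect control and ±100 the full control effect; nearly all actives have a fitted effect of over 65% in size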
#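 Cells in G418 medium, seeded 16-24 h, 37C; buffer exchange to DPBS + 1 mM CaCl2, 0.5 mM MgCl2, 0.05% BSA; cpds in DMSO + […] (300 uM stock), 30 min 37C; HTRF cAMP detection.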
# ClpP mod: qHTS Assay for Activators of ClpP. Potency, µM (highest dose often 57.5 µM), for the others: at the top dose activity change, negative = active. 340,000 tested, 1.9% active. ATP-dependent Clp protease proteolytic subunit (Bacillus subtilis (strain 168)), P80244. purified B. subtilis ClpP, FRET peptide cleavage, 20 min; active = well fitted falling curve with a large enough effect; inconclusive = small, poorly fitted or top-dose-only effect; inactive = no such curve, though single readings can be large or run the other way; further: potency means the concentration at half of the fitted maximal effect; the source files actives as falling curves though it sought activators and does not explain the sign; nearly all actives have a fitted effect of over 65% in size; many hits overshoot -100%
#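 Buffer: 100 mM Tris/HCl pH8, 100 mM KCl, 0.05% low protease BSA, 2.5% glycerol, 0.01% Tween-20. ClpP 10 microg/mL final; 20 min RT; delta FRET normalized to ADEP and DMSO controls.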
# Sfp inh: inhibitors of Bacillus subtilis Sfp phosphopantetheinyl transferase | Q9F4F7 | Biochemical Sfp PPTase activity, qHTS | Potency, µM, for inactives: max response, negative = inhibition, hits mostly inhibitors | 310,000 tested, 3.5% active; active means well fitted inhibition curve with a large enough effect; inconclusive means small, poorly fitted or top-dose-only effect, or another doubt; inactive means no such curve, though single readings can be large or run the other way;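 further: the enzyme is Sfp with the accession as filed and its product quenches rhodamine fluorescence; potency means the concentration at half of the fitted maximal effect; 0% = enzyme reaction without inhibitor and -100% = no enzyme wells; top concentration of the series not given in the record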
#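 After 15 min at room temperature with compound, 15 nM Sfp received 5 uM rhodamine-CoA plus 12.5 uM BHQ-2-ybbR (50 mM Hepes pH 7.6, 10 mM MgCl2). Rate came from the fluorescence difference over 30 min, ex 525/em 598 nm.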
# Active calls of the source: *; ? = inconclusive; / = no result given; [ ] = another dose, or the depositor's remark.
no. | Compound | gsp antagonist | Menin MLL FP FL | CtBP-E1A blk | gsp ag | TRPV1 potentiator | ClpP mod | Sfp inh
1 | CCOC(=O)/C=C1\SCC(=O)N1Cc1nnc(-c2ccccc2Br)o1 | -7% | ? | -2 | 10% | 1 | -1.7% | 2%
2 | COc1ccc(-c2nonc2NC(=O)c2oc3ccccc3c2C)cc1OC | ? | -14 | -14 | 13% | 15 | -6.4% | 13%
3 | COCCNC(=O)Cn1cnc([N+](=O)[O-])n1 | / | -4.2 | 12 | 7%[15.4 µM] | -1 | / | 7%
4 | Brc1ccc(-c2ccc(/C=N/Nc3nc4ccccc4[nH]3)o2)cc1 | -4% | -2.5 | / | -27% | -7 | ? | 4%
5 | Cc1ccc(C(OC(=O)c2ccco2)C(=O)NC2CCCC2)cc1 (stereo not given) | 6% | 1.6 | 2 | 20% | -5 | / | 0%
6 | COc1ccc(C(=O)Nc2nc(CC(=O)NCCc3ccccc3)cs2)cc1 | -18% | / | -4 | -1%[15.4 µM] | -4 | -2.7% | /
7 | COc1cccc(CNC(=O)C2CCN(S(=O)(=O)c3ccc(F)cc3)CC2)c1 | 4% | 1.6 | 8 | 1% | -14 | 2.0% | -2%
8 | COc1ccc(CNc2nc(-c3ccccc3)nc3ccccc23)cc1OC | -8% | -18 | -2 | -41%[inhibitor] | 19 | / | -4%
9 | COc1ccc(OC)c(-c2csc(NC(=O)COC(=O)C3CC3)n2)c1 | 2% | / | -8 | -4% | -5 | 0.0% | /
10 | COC(=O)C1=C(C)Nc2nnnn2C1c1ccc(Cl)cc1Cl (stereo not given) | -18% | 5.3 | 0 | 7% | -17 | -14% | 6%
11 | CN(C(=O)CSc1nnc(Cc2cccc3ccccc23)n1N)C1CCS(=O)(=O)C1 (stereo not given) | 1% | 0.4 | 1 | -9% | 6 | 0.7% | 18%
12 | CSc1ccccc1C(=O)Nc1cc(C)cc(C)c1 | -12% | -1.3 | -2 | -17% | -3 | -1.8% | -13%
13 | O=C(O)Cc1ccc(N=Cc2c(O)ccc3ccccc23)cc1 | -18% | 5.8 | 2 | 24%[15.4 µM] | -4 | -2.0% | 2%
14 | CC(C)(C)OC(=O)N1CCC(C(=O)Nc2cccc(C(=O)N3CCCCC3)c2)CC1 | 2% | / | 2 | / | / | 1.2% | /
15 | O=C(Nc1nc2ccccc2[nH]1)c1cc2ccccc2o1 | -11% | 2.2 | 68 | -51%[inhibitor] | -6 | -9.4% | 30%

# Quoted at random: two records from the list.
no. | Compound | gsp antagonist | Menin MLL FP FL | CtBP-E1A blk | gsp ag | TRPV1 potentiator | ClpP mod | Sfp inh
6 | COc1ccc(C(=O)Nc2nc(CC(=O)NCCc3ccccc3)cs2)cc1 | -18% | / | -4 | -1%[15.4 µM] | -4 | -2.7% | /
10 | COC(=O)C1=C(C)Nc2nnnn2C1c1ccc(Cl)cc1Cl (stereo not given) | -18% | 5.3 | 0 | 7% | -17 | -14% | 6%

# Look-ups from the results shown.
# Under Menin MLL FP FL, `Brc1ccc(-c2ccc(/C=N/Nc3nc4ccccc4[nH]3)o2)cc1` shows -2.5
# Under gsp ag, `CCOC(=O)/C=C1\SCC(=O)N1Cc1nnc(-c2ccccc2Br)o1` shows 10%
# Under ClpP mod, `COc1ccc(-c2nonc2NC(=O)c2oc3ccccc3c2C)cc1OC` shows -6.4%
# Under gsp ag, `Cc1ccc(C(OC(=O)c2ccco2)C(=O)NC2CCCC2)cc1` (stereo not given) shows 20%
# Under gsp ag, `COc1ccc(OC)c(-c2csc(NC(=O)COC(=O)C3CC3)n2)c1` shows -4%
# Under gsp ag, `O=C(Nc1nc2ccccc2[nH]1)c1cc2ccccc2o1` shows -51%[inhibitor]

# New compounds follow.
no. | Compound | gsp antagonist | Menin MLL FP FL | CtBP-E1A blk | gsp ag | TRPV1 potentiator | ClpP mod | Sfp inh
16 | CC1(C)CC(C2N3CC4(C)CN2CC(C)(C3)C4=O)CCO1 (stereo not given) | 8% | -0.2 | -20 | 41% | -4 | 2.3% | 14%
17 | C[C@H]1CN([C@@H](C)CO)C(=O)c2cc(NC(=O)C3CCCCC3)ccc2O[C@H]1CN(C)Cc1ccc(-c2ccccc2)cc1 | 0% | / | -13 | / | / | -17% | /
18 | O=C(COC(=O)C1CCN(C(=O)Nc2ccccc2)CC1)NCC(F)(F)F | 1% | 4.1 | 5 | -2%[15.4 µM] | 4 | / | 19%
19 | C/C(=N\N=C\c1ccccc1F)c1nnn(-c2nonc2N)c1C | -6% | 2.3 | -8 | -30%[inhibitor] | -4 | 0.7% | 12%
20 | COc1ccccc1CN1CCCC(C(=O)N(C)Cc2ccccc2)C1 (stereo not given) | 0% | 3.1 | 7 | -7% | / | -13% | ?
21 | COC(=O)c1sccc1NC(=O)Cc1ccc(OC)cc1 | 8% | -2.1 | 2 | 9% | -3 | 0.5% | 4%
22 | O=C(NC1CCCCCC1)c1ccco1 | 3% | / | / | 17% | 10 | -1.7% | 17%
23 | O=S(=O)(NCCC1=CCCCC1)c1ccccc1Br | -6% | / | 0 | 9% | -1 | -3.1% | /
24 | CCOCCn1c(SCCCc2ccccc2)nc2c1c(=O)[nH]c(=O)n2C | 7% | -2.1 | -9 | 19% | -12 | -2.7% | 6%
25 | CN1C(=O)c2ccc(NC(=O)c3c(F)c(F)c(F)c(F)c3F)cc2C1=O | 16% | 3.0 | -11 | 1% | 2 | 32µM* | 1%
26 | Cc1ccc(C)c(-c2nnc(NC(=O)Cc3ccc(F)cc3)o2)c1 | 1% | -5.5 | / | -33%[inhibitor] | ? | 0.2% | 21%
27 | CCOc1ccc(OCC(=O)NCCS(=O)(=O)N2CCN(c3ccccc3)CC2)cc1 | / | / | -16 | ? | / | -2.3% | /
28 | Cc1nnc(SCC(=O)Nc2cc(-c3cc(C)c(C)cc3C)nn2-c2ccccc2)s1 | ? | 7.1 | / | 7% | -4 | -0.1% | 8%
29 | Cc1nnc(Nc2ccccc2F)s1 | -11% | -0.2 | 0 | 1% | -18 | 1.9% | 1%
30 | CCCCCn1cnc2c(sc3nc4c(cc32)CSC(C)(C)C4)c1=O | -11% | 5.4 | 12 | ? | -17 | 193% | -10%
31 | O=[N+]([O-])c1ccccc1/C=N\Nc1nccs1 | -13% | 2.3 | -2 | 7%[15.4 µM] | -25 | 0.6% | 0%
32 | CC1CCC(O)(C(C(=O)O)c2ccccc2)CC1 (stereo not given) | 15% | / | 2 | -1% | / | / | /
33 | COc1ccc(C(=O)N2CCC(C(=O)N3CCN(c4ccc(OC)cc4)CC3)CC2)cc1 | 5% | 3.5 | -8 | -1%[15.4 µM] | -4 | / | 17%
34 | COc1ccc(S(=O)(=O)N2CCOC23CCN(C(=O)c2c(F)cccc2Cl)CC3)cc1 | -18% | / | 1 | 1% | 7 | -0.8% | 8%
35 | CC(C)CC(CC(C)C)=NNC(=O)c1ccc(CSc2nncn2C)cc1 | 9% | 0.3 | -1 | -13%[15.4 µM] | 0 | / | -4%

# Part of the list above in order of formula weight, ascending.
no. | Compound | gsp antagonist | Menin MLL FP FL | CtBP-E1A blk | gsp ag | TRPV1 potentiator | ClpP mod | Sfp inh
32 | CC1CCC(O)(C(C(=O)O)c2ccccc2)CC1 (stereo not given) | 15% | / | 2 | -1% | / | / | /
30 | CCCCCn1cnc2c(sc3nc4c(cc32)CSC(C)(C)C4)c1=O | -11% | 5.4 | 12 | ? | -17 | 193% | -10%
24 | CCOCCn1c(SCCCc2ccccc2)nc2c1c(=O)[nH]c(=O)n2C | 7% | -2.1 | -9 | 19% | -12 | -2.7% | 6%
14 | CC(C)(C)OC(=O)N1CCC(C(=O)Nc2cccc(C(=O)N3CCCCC3)c2)CC1 | 2% | / | 2 | / | / | 1.2% | /
